hNpr1 antagonist: blocks ANP-stimulated signaling of human Npr1 receptor | hit rate 1.6% among 76,000 | AID 1347048 | Potency, µM (series often up to 46.3 µM), for the others: top-dose activity change, negative = inhibition, usual class: inhibitors | HEK293 hNpr1 GloSensor cGMP, ANP-stimulated luminescence | P16066; active = well fitted inhibition curve with a large enough effect; inconclusive = small, poorly fitted or top-dose-only effect; inactive = no such curve, though single readings can be large or run the other way;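 note: nearly all actives have a fitted effect of over 60% in size; nearly all hits also lower the signal before the agonist is added; a reference antagonist and vehicle were the controls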
Target sequence (P16066 whole entry, looked up): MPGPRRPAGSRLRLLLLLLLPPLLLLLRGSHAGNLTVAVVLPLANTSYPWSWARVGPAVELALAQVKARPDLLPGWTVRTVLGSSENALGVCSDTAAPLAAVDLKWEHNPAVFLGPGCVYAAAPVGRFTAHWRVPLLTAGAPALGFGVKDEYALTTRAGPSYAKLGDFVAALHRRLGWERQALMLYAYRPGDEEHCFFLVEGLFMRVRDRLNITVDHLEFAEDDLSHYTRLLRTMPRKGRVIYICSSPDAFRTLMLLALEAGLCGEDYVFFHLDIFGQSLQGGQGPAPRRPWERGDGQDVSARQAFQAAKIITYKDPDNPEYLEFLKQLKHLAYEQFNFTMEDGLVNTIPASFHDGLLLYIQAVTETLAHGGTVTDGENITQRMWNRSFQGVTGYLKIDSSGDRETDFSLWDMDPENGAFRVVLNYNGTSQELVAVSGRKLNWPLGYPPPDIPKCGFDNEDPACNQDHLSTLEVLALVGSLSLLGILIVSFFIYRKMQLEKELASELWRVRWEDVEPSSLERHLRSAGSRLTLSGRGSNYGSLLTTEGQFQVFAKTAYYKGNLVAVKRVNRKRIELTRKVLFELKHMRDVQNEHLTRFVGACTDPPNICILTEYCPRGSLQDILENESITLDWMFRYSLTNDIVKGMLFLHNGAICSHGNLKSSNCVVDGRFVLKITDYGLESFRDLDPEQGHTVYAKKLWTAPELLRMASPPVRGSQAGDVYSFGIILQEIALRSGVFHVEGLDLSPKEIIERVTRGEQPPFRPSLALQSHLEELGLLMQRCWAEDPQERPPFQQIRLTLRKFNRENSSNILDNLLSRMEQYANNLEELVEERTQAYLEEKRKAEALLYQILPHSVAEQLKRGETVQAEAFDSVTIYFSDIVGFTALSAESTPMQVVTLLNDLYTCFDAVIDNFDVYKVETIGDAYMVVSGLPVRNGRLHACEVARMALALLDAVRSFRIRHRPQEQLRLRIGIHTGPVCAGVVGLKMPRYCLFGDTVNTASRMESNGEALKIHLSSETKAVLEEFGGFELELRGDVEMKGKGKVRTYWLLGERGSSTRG
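Compound pre-incubated 30 min at room temperature on GloSensor-loaded HEK293 cells stably carrying hNpr1 and the pGS-40F cGMP biosensor. Stimulation uses hNppA at 0.1 nM final; luminescence is taken at baseline and 20 min post-agonist.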
An asterisk follows results filed as active; ? = inconclusive; [ ] = dose if it differs, or a comment. % is set by controls: 0 for no effect and ±100 for the full control effect; potency is the fitted concentration of half-maximal effect. Only part of the results is shown. The share of hits here may be higher or lower than overall.

hNpr1 antagonist	molecule
0%	O=C(O)C[C@@H]1CCN(C(=O)c2ccnc(Cl)c2)C[C@@H]1CCN1C[C@@H]2C[C@H](C1)c1cccc(=O)n1C2
0%	O=C([C@@H]1CNC[C@H](C(=O)N2CCN(c3ccncc3)CC2)C1)N1CCOCC1
0%	COCCC1CN(Cc2nc(-c3cccc(C(F)(F)F)c3)oc2C)CCO1 (configuration not stated)
1%	Cc1cccc(C(=O)N2CCc3nnc([C@@H]4C[C@@H](O)CN4C(C)C)n3CC2)c1
6%	COc1ccc(OC)c(S(=O)(=O)NCCc2ncc(C)n2C(C)C)c1
3%	COC1CN(C2CCN(C(=O)CC(C)C)CC2)C12CCOCC2 (configuration not stated)
0%	COc1ccc(C2Cn3nnc(C(=O)N4CCC(C(=O)NCCc5ccccc5)CC4)c3CO2)cc1 (configuration not stated)
3%	CNC(=O)N1CCC(C2CCN(S(=O)(=O)c3cccc(C#N)c3)C2)CC1 (configuration not stated)
-1%	COCCn1ccc2c(C(=O)Nc3ccc4c(c3)C(=O)N3CCC[C@H]3C(=O)N4)cccc21
1%	O=C(NCc1ccco1)N1c2ccccc2CC1c1nc(C2CC2)no1 (configuration not stated)
?	CS(=O)(=O)c1ccc(CN2C[C@@H](F)[C@@H](OCc3nc4ccc(F)cc4[nH]3)C2)cc1
1%	O=C(NCCc1cnccn1)C1CCN(C(=O)C2CCC2)CC1
-9%	O=C(CCc1ccc(-c2cccs2)o1)NC[C@@H]1C[C@H](F)CN1
1%	Cc1nncn1CCN1CCCC(CCC(=O)N(C)C2CCN(C)CC2)C1 (configuration not stated)
0%	CCOC(=O)CCNC(=O)N1CCCCCCN(C)C(=O)CC1
5%	NC1CCc2nn(CC(=O)N3CCCN(c4ncccn4)CC3)c(=O)n2CC1 (configuration not stated)
4%	COCCN1CCCN(C(=O)c2cc(C)ccc2C)c2ccccc21
0%	Cc1nc2n(n1)C(C(=O)Nc1ccc(C)c(C)c1)CC(=O)N2 (configuration not stated)
7%	C=CC[C@H]1CC(C)=C[C@H](CC=C)N1Cc1ccc(CN(C)S(C)(=O)=O)o1
-29%	CCS(=O)(=O)N1CCC(F)(c2nc(-c3ccccc3)no2)CC1

Three structures from above, sorted by count of non-hydrogen atoms, lowest first:
hNpr1 antagonist	molecule
-9%	O=C(CCc1ccc(-c2cccs2)o1)NC[C@@H]1C[C@H](F)CN1
1%	O=C(NCCc1cnccn1)C1CCN(C(=O)C2CCC2)CC1
0%	COc1ccc(C2Cn3nnc(C(=O)N4CCC(C(=O)NCCc5ccccc5)CC4)c3CO2)cc1 (configuration not stated)

Next section.
hNpr1 antagonist	molecule
9%	COc1cccc([C@@H]2CN(C(=O)c3cnn(C)c3)C[C@H]2C(=O)O)c1OC
0%	CCn1nccc1C(=O)N1c2ccccc2CC1c1nnc(C2CCOCC2)o1 (configuration not stated)
-1%	O=C(c1ccccc1OC(F)(F)F)N1CCC(c2n[nH]c(=O)n2-c2ccccc2)CC1
0%[70.6 µM]	COc1ccc(-c2ccc3c(n2)c(=O)ncn3CC2CC2)cc1OC
3%	O=C(CC1CCN(C(=O)c2ccccc2F)C1)NC1CC1 (configuration not stated)
-1%	O=C(c1nnn2c1COC(c1ccccc1)C2)N1CCN(C(=O)C2(c3ccccc3)CC2)CC1 (configuration not stated)
-6%	O=c1c2c(n(Cc3cccnc3)n1CCc1ccccc1)CN(Cc1ccc3c(c1)CCO3)CC2
1%	Cn1cc(CN2C[C@@H](CO)[C@H](NC(=O)C3CCC3)C2)c2ccccc21
0%	COC(=O)N1CCC2(C1)C(=O)N(CCc1ccccc1)c1ccccc12 (configuration not stated)
-1%	O=C1CCN(S(=O)(=O)c2ccccc2)CCCC(C(=O)N2CCOCC2)CCN1 (configuration not stated)
4%	CCN(CC)CCNc1nc(C)nc2c1c(C)nn2C
1%	Cc1cccc(C(=O)N[C@@H]2CN(Cc3cccnc3)C[C@H]2CN(C)C)c1
-3%[70.6 µM]	O=C(NCc1ccccc1)N1CC[C@H]2COC(=O)N2c2cc(F)ccc2C1
0%[70.6 µM]	COc1cccc(-c2n[nH]c3c2CC(=O)N(CCc2ccncc2)C3)c1OC
-14%	Cc1noc([C@H]2CCN(S(=O)(=O)c3ccc4c(c3)CCC4)C[C@H]2NC(=O)C2CC2)n1
2%	CCCc1cnc(C)nc1N1CCC(Oc2ccccc2OC)(C(=O)O)CC1
3%	COC(=O)[C@H](Cc1ccc(OC)cc1)NC(=O)[C@H]1CN(C(C)=O)CCN1S(=O)(=O)c1ccccc1
-1%	O=C(CC1CCN(S(=O)(=O)c2cccc(F)c2)C1)NCc1ccccc1 (configuration not stated)
9%	O=C(c1ccco1)N1CCCC(c2nn[nH]n2)C1 (configuration not stated)
5%	Cc1cccc(-c2nocc2CCC(=O)NCc2ccccc2F)c1

As entered above:
`COC(=O)[C@H](Cc1ccc(OC)cc1)NC(=O)[C@H]1CN(C(C)=O)CCN1S(=O)(=O)c1ccccc1` @ hNpr1 antagonist = 3%
`Cc1cccc(C(=O)N2CCc3nnc([C@@H]4C[C@@H](O)CN4C(C)C)n3CC2)c1` @ hNpr1 antagonist = 1%
`COc1ccc(C2Cn3nnc(C(=O)N4CCC(C(=O)NCCc5ccccc5)CC4)c3CO2)cc1` (configuration not stated) @ hNpr1 antagonist = 0%
`O=C1CCN(S(=O)(=O)c2ccccc2)CCCC(C(=O)N2CCOCC2)CCN1` (configuration not stated) @ hNpr1 antagonist = -1%
`O=C(CC1CCN(C(=O)c2ccccc2F)C1)NC1CC1` (configuration not stated) @ hNpr1 antagonist = 3%

New compounds follow.
hNpr1 antagonist	molecule
-2%[70.6 µM]	COc1ncccc1-c1cc(C(=O)N2CCOCC2)c2c(c1)ncn2C
-2%[70.6 µM]	CC1(C)[C@H]2CC[C@@H](CNC(=O)c3cccc(Br)c3)[C@@H]1C2
-9%[70.6 µM]	COc1ccccc1-c1cc(-c2cn[nH]c2)c2cncn2c1
3%[70.6 µM]	COc1ccc(Cl)cc1-c1ccc2c(c1)C(=O)N1CCN(C(=O)CN)C[C@H]1C(=O)N2
-6%	O=C(NC1CC1)[C@@H]1C[C@H](Oc2cccnc2)CN1C(=O)COc1ccccc1
2%	Cc1noc(C)c1C1CCCN1C(=O)Cc1nc(-c2cccnc2)n[nH]1 (configuration not stated)
0%	COC1C(=O)N(c2cccc(F)c2)C12CCN(C(=O)c1cccc(C#N)c1)CC2 (configuration not stated)
-10%	O=C(CCc1nnn2c1CN(C(=O)NC1CCCC1)CC2)N1CCOCC1
7%[70.6 µM]	Cc1noc(C)c1-c1cc2c(c(-c3cccc(S(C)(=O)=O)c3)c1)C(=O)N(C)C2
4%	COc1ccc([C@H]2CN(C(=O)C3CCN(C(=O)N(C)C)CC3)C[C@@H]2N)cc1
-1%	CCCNC(=O)C1COC2(CCN(C(=O)c3cccc(F)c3)CC2)N1C(=O)c1cccc(OC)c1 (configuration not stated)
-2%	Cc1cccc(C(=O)N2CCCN(C)c3ccccc32)c1
3%[70.6 µM]	Cc1nc2c(c(-c3ccc(O)cc3)n1)CN(C(=O)C(C)(C)C)CC2
-10%	COc1ccc(C(=O)N2CCC[C@H]2c2nc(-c3ccccc3Cl)no2)cc1F
-2%	CC1(c2ccccc2)N(Cc2ccccc2F)C(=O)OC12CCN(C(=O)c1cnccn1)CC2 (configuration not stated)
4%	O=C(NC1CCCCC1)C1CC(=O)N(c2n[nH]c3cccc(F)c23)C1 (configuration not stated)
-4%	O=C1NCCCCCCN(C(=O)CC2CCCC2)[C@@H]2CCCC[C@H]12
-2%[70.6 µM]	O=c1ccc(-c2cc(-c3cccc(N4CCOCC4)c3)cn3cncc23)c[nH]1
?	COc1ccc(C(=O)N2CCCN(c3cc(-c4ccc(F)cc4)[nH]n3)CC2)cc1OC
-1%	Cc1cc(C)n(CCC(=O)N2CCC3(CC2)CC(N(C)Cc2ccccc2)CCO3)n1 (configuration not stated)

An excerpt from above in order of the hNpr1 antagonist value, largest number first:
mol	hNpr1 antagonist
O=C(NC1CCCCC1)C1CC(=O)N(c2n[nH]c3cccc(F)c23)C1 (configuration not stated)	4%
Cc1noc(C)c1C1CCCN1C(=O)Cc1nc(-c2cccnc2)n[nH]1 (configuration not stated)	2%
CCCNC(=O)C1COC2(CCN(C(=O)c3cccc(F)c3)CC2)N1C(=O)c1cccc(OC)c1 (configuration not stated)	-1%
O=C1NCCCCCCN(C(=O)CC2CCCC2)[C@@H]2CCCC[C@H]12	-4%
O=C(CCc1nnn2c1CN(C(=O)NC1CCCC1)CC2)N1CCOCC1	-10%

Other structures:
hNpr1 antagonist	molecule
-2%	CCn1cnnc1-c1nn(C)c2c1CN(C(=O)c1n[nH]c3c1CCCCCC3)CC2
4%[70.6 µM]	Cc1ccc2nc(CO[C@H]3CN(CC(C)(C)C)C[C@H]3F)[nH]c2c1
2%	c1cc(Cn2cncn2)cc(-n2ccnc2-c2cc3n(n2)CCCNC3)c1
22%[70.6 µM]	COC(=O)N1CCCC(c2nn(-c3ccc(F)cc3)c(=O)[nH]2)C1 (configuration not stated)
3%	COc1cccc(CN2C[C@@H](CO)[C@H](c3ccncc3)C2)c1OC
2%	c1ccc(-c2noc(-c3cncnc3NCC3CCCCC3)n2)cc1
5%	O=C(c1ccco1)N1CCC(N2C(=O)C(O)C23CCCCC3)CC1 (configuration not stated)
4%	COc1ccc(OC)c(CNC(=O)[C@H]2CCC[C@H]2NC(=O)c2cnc(C)cn2)c1
1%	c1ccc(Cn2cnnc2CC2CCNCC2)cc1
-2%	COCCN[C@@H]1C[C@@H]2c3[nH]c4ccccc4c3C[C@@H](C(=O)OC)N2[C@H](c2ccc(C(F)(F)F)cc2)C1
-7%	Cc1cc(=O)n(CC(=O)Nc2cccc(C)c2C)c(N2CCc3ccccc3C2)n1
-3%	COc1ccc(N2CCN(C3CCCN(Cc4cc(=O)[nH]c(=O)[nH]4)C3)CC2)cc1 (configuration not stated)
3%	CCOC(=O)C1(Cc2ccc(F)cc2)CCCN(C(=O)c2ccc(N(C)C)cc2)C1 (configuration not stated)
-2%	CCCCNC(=O)Cc1csc2nc(C)c(-c3cc(C)n(-c4cccc(C)c4)n3)c(=O)n12
-21%	O=C(NCc1ccco1)N1CCC(OC2CCN(Cc3ccccc3)CC2)CC1
-14%	COc1ccc(-c2noc(-c3cccn3CC(=O)Nc3cc(C)c(Cl)cc3OC)n2)cc1F
-1%	CCC(=O)NCCC1CCN(C(=O)Nc2ccc(C)cc2)CC1
3%	CC(=O)N1CCC([C@@H]2CN(C(=O)CCCc3ccccc3)C[C@H]2CO)CC1
10%	c1ccc(COCCCc2nc(C3CCOC3)n[nH]2)cc1 (configuration not stated)
-1%	O=C(c1ccc(F)cc1)N1CCC2(CC1)CCN(Cc1cccs1)c1ccccc1O2

(continued)
hNpr1 antagonist	molecule
4%[70.6 µM]	O=C(C1CC1)N1CC[C@H](c2nc3ccccc3s2)C1
5%	Cc1cccc(OCC(=O)N2CC(F)(F)C[C@H]2c2nnc(C)o2)c1
-2%[70.6 µM]	C#CCN(C)Cc1nc(C2(O)CCN(CCC(C)C)CC2)cs1
-11%	Cc1ccc(CNC(=O)N2CCCC(c3nc(C(C)C)no3)CCNC(=O)CC2)cc1 (configuration not stated)
-3%	CN(C)C(=O)c1cccnc1OC1CCN(S(=O)(=O)Cc2ccccc2Cl)C1 (configuration not stated)
4%[70.6 µM]	CCOC(=O)c1ccc(N2C(=O)[C@@H]3Cc4nc[nH]c4CN3C2=O)cc1
-13%	Cc1cc(C(=O)N2CCc3c(nc(-c4ccc(F)cc4)[nH]c3=O)C2)nn1C
5%	O=C(NCc1nnc2ccc(-c3ccc(Cl)cc3)nn12)c1cc(F)ccc1F
2%	CN1CC2(CCN(C(=O)c3ccccc3C3CCNC3)CC2)CC1=O (configuration not stated)
8%	CN(C)[C@H]1CCN(C(=O)c2ccc(SCCO)cc2)C[C@H]1CCC(=O)O
?	N#Cc1ccc(CN2C[C@@H]3C[C@H]2C(=O)N(Cc2ccccc2)c2ccccc2O3)cc1
-2%	CCn1nc(CC(C)C)cc1C(=O)N1CCN(CCn2cccc2)CC1
5%	CCCNC(=O)N(C1CCOCC1)C1CCN(C(=O)c2ccc(Cl)s2)CC1
9%	CC(C)n1c(C2CCN(C(=O)Cc3cccc(F)c3)CC2)nn(C)c1=O
5%	O=C(NC1CCc2nn(CC3CC3)c(=O)n2CC1)c1cc(C2CC2)[nH]n1 (configuration not stated)
-1%	COc1ccc(S(=O)(=O)N2C[C@@H](F)C[C@H]2C(=O)N2CCOCC2)cc1
-1%	N#Cc1cccnc1N1CC[C@@H](N2CCC(O)CC2)[C@H](O)C1
0%	O=C(c1ccccc1)N1CCC(NCc2cnn(-c3cccc(F)c3)c2)CC1
0%	Cc1ccsc1C(=O)N1CCC(CC(=O)NCc2ccccc2)C1 (configuration not stated)
1%[70.6 µM]	Cn1cc(-c2cn(C)c(=O)n3cc(COc4ccc(Cl)cc4)nc23)cn1

Remaining list, next part
hNpr1 antagonist	molecule
1%	CC(=O)N1CCC(n2c(C)cnc2-c2ccccc2)CC1
-2%[70.6 µM]	COCC1(CNCc2cnn(C)c2)C[C@@H](O)[C@@H](O)C1 (some centres not stated)
3%[70.6 µM]	CO[C@@H]1C[C@H]2C(=O)Nc3ccc(-c4ccccc4F)cc3C(=O)N2C1
-16%	O=C(Cn1cccc1-c1nc(-c2ccccc2)no1)NCc1ccc(F)cc1Cl
0%	CCO[C@H]1CN(C(=O)Cc2c(C)[nH]c3c(F)cccc23)C[C@@H]1O
2%[70.6 µM]	O=c1[nH]c(C2CCCN(Cc3ccsc3)C2)nn1-c1ccccc1 (configuration not stated)

Retrieved one by one from the entries so far (2):
hNpr1 antagonist	molecule
-2%[70.6 µM]	COCC1(CNCc2cnn(C)c2)C[C@@H](O)[C@@H](O)C1 (some centres not stated)
-16%	O=C(Cn1cccc1-c1nc(-c2ccccc2)no1)NCc1ccc(F)cc1Cl
